Source: PubChem BioAssay (National Center for Advancing Translational Sciences (NCATS))
TRPV1 potentiator = HTS Assay for Compounds that Act as Potentiators of the Vanilloid Receptor 1; Transient receptor potential cation channel subfamily V member 1 (Homo sapiens), Q8NER1; TRPV1-expressing cells, Fluo-8 calcium influx, capsaicin EC20 potentiation; host cell line not named in the record; control for the full effect not named in the record; potentiation, % at 8.33 µM; 320,000 compounds, 0.02% hits; AID 540277, 2011; active means potentiation above 80%; inconclusive means 30% to 80%; inactive means below 30%; further: 0% is about no effect
Target sequence (Q8NER1 whole entry, looked up): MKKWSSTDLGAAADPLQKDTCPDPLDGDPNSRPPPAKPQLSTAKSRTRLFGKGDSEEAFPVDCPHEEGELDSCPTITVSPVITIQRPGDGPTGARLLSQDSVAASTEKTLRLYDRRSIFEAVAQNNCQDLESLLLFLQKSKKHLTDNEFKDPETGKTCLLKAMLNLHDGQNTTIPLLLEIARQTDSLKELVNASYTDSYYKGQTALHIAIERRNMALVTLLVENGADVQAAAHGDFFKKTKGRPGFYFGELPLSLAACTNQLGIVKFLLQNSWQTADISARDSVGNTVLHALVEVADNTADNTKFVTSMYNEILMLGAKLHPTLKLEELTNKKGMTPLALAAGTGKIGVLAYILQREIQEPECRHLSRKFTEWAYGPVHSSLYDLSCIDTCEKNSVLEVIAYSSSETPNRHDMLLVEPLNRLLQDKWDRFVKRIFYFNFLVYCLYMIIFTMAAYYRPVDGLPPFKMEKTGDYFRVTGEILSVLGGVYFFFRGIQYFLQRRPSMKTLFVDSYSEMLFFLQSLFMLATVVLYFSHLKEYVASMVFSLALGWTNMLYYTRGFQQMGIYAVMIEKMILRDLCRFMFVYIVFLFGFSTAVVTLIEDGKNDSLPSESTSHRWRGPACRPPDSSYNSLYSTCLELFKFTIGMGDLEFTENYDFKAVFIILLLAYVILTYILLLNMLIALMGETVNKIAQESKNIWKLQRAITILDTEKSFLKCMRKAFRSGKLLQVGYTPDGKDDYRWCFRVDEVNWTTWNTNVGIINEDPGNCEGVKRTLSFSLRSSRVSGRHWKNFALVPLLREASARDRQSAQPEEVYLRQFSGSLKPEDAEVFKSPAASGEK
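Fluo-8 calcium influx in TRPV1-expressing cells, kinetic read (ex 480/em 520 nm). Compound added and read 3 min for agonist activity, followed by capsaicin at EC20 final and 2 min further read for enhancement.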
Sfp PPTase inh = qHTS Assay for Inhibitors of Bacillus subtilis Sfp phosphopantetheinyl transferase (PPTase); 310,000 compounds, 3.5% hits; Potency, µM, for the others: max response, negative = inhibition, usual class: inhibitors; Biochemical Sfp PPTase activity, qHTS; 4'-phosphopantetheinyl transferase ffp (Bacillus subtilis), Q9F4F7; active means well fitted inhibition curve with a large enough effect; inconclusive means small, poorly fitted or top-dose-only effect, or another doubt; inactive means no such curve, though single readings can be large or run the other way;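 further: the enzyme is Sfp with the accession as filed and its product quenches rhodamine fluorescence; potency means the concentration at half of the fitted maximal effect; 0% = enzyme reaction without inhibitor and -100% = no enzyme wells; top concentration of the series not given in the record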
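Sfp 15 nM + cpd, 15 min RT; start w/ rhodamine-CoA 5 uM, BHQ-2-YbbR 12.5 uM (final); 50 mM Hepes pH 7.6, 10 mM MgCl2, 0.01% NP-40, 0.01% BSA; read 525/598 nm at 0 and 30 min.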
TRPML1 inh = qHTS for Inhibitors of the Human Mucolipin Transient Receptor Potential 1 (TRPML1) | AID 624415, 2012 | 390,000 compounds, 0.02% hits | Mucolipin-1 (Homo sapiens), Q9GZU1 | activity change, negative = inhibition, % (concentration not given with the values) | TRPML1-inducible cells, Ca2+ dye fluorescence, FDSS; hits give low values; inhibition of EC80 agonist-evoked calcium signal; in the data active means activity change below about -50%; inconclusive means about -30% to -50%; inactive means above about -30%;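 further: stimulus is agonist 54-4 at its EC80 concentration; on the % scale 0 is the no-effect control and ±100 the full control effect; the text of the record puts the active cut at -80%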
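TRPML1-DL cells, Tet-induced overnight (~16 h, 37 °C) at 1,500 cells/well, were loaded with Ca8 no-wash dye plus quencher for 45-90 min at room temperature. Compounds were pinned during FDSS kinetic reading; agonist 54-4 at EC80 (4 uM final) then added.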
ClpP mod = qHTS Assay for Activators of ClpP. 340,000 compounds, 1.9% hits. Potency, µM (series often up to 57.5 µM), inactives show top-dose activity change, negative = active. AID 651965, 2013. ATP-dependent Clp protease proteolytic subunit (Bacillus subtilis (strain 168)), P80244. purified B. subtilis ClpP, FRET peptide cleavage, 20 min; active = well fitted falling curve with a large enough effect; inconclusive = small, poorly fitted or top-dose-only effect; inactive = no such curve, though single readings can be large or run the other way; further: potency means the concentration at half of the fitted maximal effect; the source files actives as falling curves though it sought activators and does not explain the sign; nearly all actives have a fitted effect of over 65% in size; many hits overshoot -100%
Target sequence (P80244 whole entry, looked up): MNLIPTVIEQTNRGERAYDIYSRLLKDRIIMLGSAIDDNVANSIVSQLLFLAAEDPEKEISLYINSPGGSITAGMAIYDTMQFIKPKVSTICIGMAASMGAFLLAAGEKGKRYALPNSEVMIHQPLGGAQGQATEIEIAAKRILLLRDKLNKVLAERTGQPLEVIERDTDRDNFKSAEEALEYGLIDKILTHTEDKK
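FRET quenching reversal measured ClpP activation: 10 microg/mL B. subtilis ClpP at pH 8 with the FRET-FV decapeptide, read at 430 nm after 320 nm excitation. The 20-min minus 0-min signal was scaled between DMSO/no-enzyme wells and ADEP (5.8 microM final).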
gsp antag = qHTS for Antagonists of gsp, the Etiologic Mutation Responsible for Fibrous Dysplasia/McCune-Albright Syndrome: qHTS. gsp-mutant cells, cAMP HTRF, 30 min; control for the full effect not named in the record. Potency, µM (doses to about 76.9 µM), inactives show at the top dose activity change, negative = inhibition, most hits filed as inhibitors. 340,000 compounds, 0.4% hits; active = falling curve of any shape with a large fitted effect; inconclusive = falling curve, mostly with a smaller effect; inactive = flat or rising curve; cell line not stated here;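 further: intracellular cAMP measured with PDE inhibitor Ro 20-1724 present during compound exposure; potency means the concentration at half of the fitted maximal effect; on the % scale 0 is the no-effect control and ±100 the full control effect; nearly all actives have a fitted effect of over 65% in size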
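HTRF cAMP measurement after 30 min RT detection following 30 min, 37C compound treatment alongside […] (added as 300 uM solution) in G418-selected cells seeded at 2000/well and grown 16–24 h.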
Menin MLL FP FL = qHTS Assay for Inhibitors Targeting the Menin-MLL Interaction in MLL Related Leukemias: Competition With Fluorescein Labeled MLL-derived Peptide; Fluorescence polarization, fluorescein-MLL peptide displacement from menin; FP activity change, % at 61.4 µM; 290,000 tested, under 10 active; AID 1766, 2009; inconclusive = falling polarisation curve, or a change in total fluorescence; inactive = total fluorescence flat and polarisation flat or rising; no compound was filed as active; the % refers to the polarisation; negative = inhibition;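 further: % of control where 0% means no effect; inhibitors lower the polarisation; unlabelled MLL peptide was the positive control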
gsp agonist = qHTS for Agonist of gsp, the Etiologic Mutation Responsible for Fibrous Dysplasia/McCune-Albright Syndrome: qHTS. gsp mutant cells, cAMP HTRF, 30 min; control for the full effect not named in the record. Potency, µM (top dose mostly 76.9 µM), for inactives: at the top dose activation (cAMP increase), usual class: activators. 340,000 compounds, 0.13% hits. AID 624287, 2012; active = well fitted activation curve with a large enough effect; inconclusive = small, poorly fitted or top-dose-only effect, or another doubt; inactive = no such curve, though single readings can be large or run the other way; cell line not stated here;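 further: phosphodiesterase inhibitor Ro 20-1724 added with compounds to block cAMP breakdown; potency means the concentration at half of the fitted maximal effect; nearly all actives have a fitted effect of over 60% in size; about a fifth of the inactives were tested at one dose only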
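Cells in DMEM/10% FBS with G418 were pretreated with compounds in DMSO plus […] (300 uM stock) for 30 min at 37C. cAMP was measured by HTRF (cAMP-d2 plus anti-cAMP antibody-K) after 30 min at room temperature.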
Numbers without * were called inactive; u = inconclusive; x = no result given; [ ] = dose if it differs, or a comment.

SMILES | TRPV1 potentiator | Sfp PPTase inh | TRPML1 inh | ClpP mod | gsp antag | Menin MLL FP FL | gsp agonist
CCOC(=O)N1CCN(c2ncnc3c2oc2nc(C(C)C)c4c(c23)CCC4)CC1 | 21 | -8% | 0 | -15% | 12% | -0.1 | -19%
COc1ccc2nc(SCC(=O)NCC(F)(F)F)[nH]c2c1 | 8 | 6% | -6 | 0.3% | 8% | 5.1 | 3%[15.4 µM]
Cc1ccc(NC(=O)CSCC(=O)Nc2ncc3c(n2)CC(c2ccco2)CC3=O)cc1 (stereo not given) | u | 14µM* | 1 | -2.4% | -11% | -1.1 | 14%
COCCCNC(=O)CN1C(=O)/C(=C\c2ccc(C)cc2)Sc2ccccc21 | -12 | -17% | 2 | -1.2% | -7% | 7.6 | -3%
CCOC(=O)c1c(-c2ccccc2)cn2ccccc12 | -5 | -13% | 44 | u | -12% | 3.1 | u
CN(NC(=O)C1CC(=O)N(c2ccccc2)C1)C1=NS(=O)(=O)c2ccccc21 (stereo not given) | 0 | 8% | 30 | -9.0% | -12% | 3.2 | u
O=C(Nc1ccc(NC(=O)c2cccs2)cc1)c1cccs1 | 16 | 8% | 5 | x | -7% | -1.7 | 1%
O=C(c1ccc(Sc2ccccc2)c([N+](=O)[O-])c1)N1CCOCC1 | -26 | 1% | -2 | -0.5% | -10% | u | -27%
O=C(CCNC(=O)C1CCN(S(=O)(=O)c2ccccc2)CC1)NCc1ccncc1 | -3 | 9% | 13 | 0.4% | 12% | x | -2%
CCOc1ccc(C2C=C(c3ccc(C)cc3)Nc3nnnn32)cc1 (stereo not given) | -14 | -11% | 61 | 10µM* | 40µM* | 1.5 | 11%
COCCNC(=O)/C(C#N)=C/c1ccc(OCc2ccc(F)cc2)cc1 | -6 | -7% | 17 | 1.4% | -3% | 1.2 | 15%
COc1ccc(OCC(O)CNS(=O)(=O)c2cccs2)cc1 (stereo not given) | 2 | 6% | 18 | 1.4% | 9% | -3.3 | 9%
Cc1c(C(=O)Nc2nc3ccccc3[nH]2)cccc1[N+](=O)[O-] | -5 | 6% | -10 | -0.8% | -1% | 3.2 | 8%
COc1ccc(NC(=O)COC(=O)C2CC(=O)N(c3ccc(OC(C)C)cc3)C2)cc1 (stereo not given) | -5 | 14% | -8 | x | x | -0.9 | -10%[15.4 µM]
Cc1ccc(OCC(=O)Oc2c(C)cccc2C)cc1C | 11 | 1% | -7 | -3.7% | -12% | -0.8 | 26%

Pulled by compound from the list above:
SMILES | TRPV1 potentiator | Sfp PPTase inh | TRPML1 inh | ClpP mod | gsp antag | Menin MLL FP FL | gsp agonist
Cc1ccc(OCC(=O)Oc2c(C)cccc2C)cc1C | 11 | 1% | -7 | -3.7% | -12% | -0.8 | 26%
O=C(CCNC(=O)C1CCN(S(=O)(=O)c2ccccc2)CC1)NCc1ccncc1 | -3 | 9% | 13 | 0.4% | 12% | x | -2%
CCOc1ccc(C2C=C(c3ccc(C)cc3)Nc3nnnn32)cc1 (stereo not given) | -14 | -11% | 61 | 10µM* | 40µM* | 1.5 | 11%
COCCCNC(=O)CN1C(=O)/C(=C\c2ccc(C)cc2)Sc2ccccc21 | -12 | -17% | 2 | -1.2% | -7% | 7.6 | -3%

Other records.
SMILES | TRPV1 potentiator | Sfp PPTase inh | TRPML1 inh | ClpP mod | gsp antag | Menin MLL FP FL | gsp agonist
CN1C(=O)N(CC(=O)N2CCN(S(=O)(=O)c3ccc4c(c3)CCC4)CC2)C(=O)C12CCCCC2 | 5 | x | -3 | 1.3% | 10% | x | 12%
COc1ccc(C(=O)/C=C/C(=O)N(Cc2ccc(F)cc2)C(C(=O)NC2CCCCC2)c2ccncc2)c(O)c1 (stereo not given) | -5 | 3% | 0 | -4.8% | -30% | 8.5 | 3%
Cc1ccc(COc2ccc(Br)cc2/C=N/O)cc1 | 7 | 2% | -14 | -1.1% | -19% | -2.6 | -6%
Cc1ccc(CN2CC(C(=O)NCCCSc3ccccc3)CC2=O)cc1 (stereo not given) | -6 | 8% | 7 | -6.4% | 0% | x | -5%[15.4 µM]
COc1ccc(CCN(C(=O)c2snc(C(N)=O)c2N)C(C)C(=O)NC2CCCCC2)cc1OC (stereo not given) | 6 | 11% | -3 | x | -30% | x | -2%[15.4 µM]
COc1cccc(/C=C(/C#N)c2ccc(Cl)cc2)c1OCc1cccc(C(=O)O)c1 | 2 | u | 1 | -0.5% | -13% | -3.0 | -6%[15.4 µM]
O=C(NCc1cccc(F)c1)c1cccc2c1C(=O)c1ccc(N3CCC(Cc4ccccc4)CC3)cc1S2(=O)=O | x | x | 7 | 2.6% | -3% | x | 18%
Cc1cc(C2(c3cc(C)c(NC(=O)CN4CCOCC4)c(C)c3)CCCCC2)cc(C)c1NC(=O)CN1CCOCC1 | 2 | 17% | 15 | -0.4% | -9% | -0.4 | -36%[inhibitor]
Cc1ccc(NC(=O)c2nc[nH]c2C(=O)NCCCCCNC(=O)OC(C)(C)C)cc1 | 7 | x | -1 | -0.4% | u | x | -29%
CCCCCc1nnc(NS(C)(=O)=O)s1 | -9 | 10% | 12 | 3.0% | 6% | -4.3 | 19%
COc1ccc(CCCNC(=O)C2CCC(=O)N(Cc3ccccc3F)C2)cc1 (stereo not given) | -2 | 8% | -14 | 1.3% | -12% | x | u
CCOC(=O)C1(CCOC)CCN(Cc2cccc(OCc3ccccc3)c2)CC1 | -4 | u | 17 | -0.5% | 5% | 4.2 | -18%
Cn1c(=O)c2c(nc(N3CCCCC3)n2CCCNC2=NCCCC2)n(C)c1=O | -6 | 15% | 12 | 0.8% | 21% | 4.0 | 13µM*
Cc1ccc(N2CCN(CCc3nc4cc(NS(C)(=O)=O)ccc4n3C)CC2)cc1 | -18 | -2% | -10 | -16% | -2% | 4.4 | 0%
CC1CCCN(C(=O)c2ccc(Cl)c(S(=O)(=O)N3CCCCCC3)c2)C1 (stereo not given) | -12 | x | -7 | -3.7% | u | x | -41%[inhibitor]
COc1ccc(-c2cc(CNS(=O)(=O)c3ccc(F)cc3)on2)cc1 | 19 | 17% | 3 | x | -7% | -1.9 | 22%
Cc1ccc(C(=O)NNC(=O)c2ccc(-n3cncn3)c([N+](=O)[O-])c2)cc1 | 3 | x | -2 | 0.8% | 6% | x | 3%
COc1cc(C(=O)N2CCN(S(=O)(=O)c3cccc(F)c3)CC2)ccc1OCC(=O)N1CCOCC1 | 4 | x | -2 | 3.2% | 8% | x | -24%
CCCCC1(C(=O)OCC)CC(CN2CCOCC2)OC1=O (stereo not given) | -6 | u | -7 | 0.8% | 4% | -1.5 | -2%
Cc1cc(Nc2nc3ccccc3nc2Cl)n(-c2ccccc2C)n1 | -3 | -2% | 0 | 0.3% | 5% | 0.3 | -5%
COc1cc(CCCN2C(=O)C(=O)NC[C@@H]2CCCCN)cc(OC)c1OC | u | 19% | -20 | -0.2% | 11% | -1.4 | -34%[inhibitor]
COC(=O)c1cc(NC(=O)CC2NCCNC2=O)cc(C(=O)OC)c1 (stereo not given) | 19 | 12% | -9 | -2.4% | -3% | 2.9 | 0%
COc1ccc(C(=O)CSc2nc3ccc([N+](=O)[O-])cc3[nH]2)cc1 | 3 | -9% | -8 | 0.4% | -21% | 2.1 | -9%
COc1cccc(NC(=O)N2CCN(c3nnnn3-c3ccccc3)CC2)c1 | u | 7% | -7 | x | -1% | -0.2 | u
O=C(c1cccc(S(=O)(=O)N2CCc3ccccc32)c1)N1CCN(c2ccccc2)CC1 | 1 | x | 41 | x | -21% | x | -19%[15.4 µM]
CC(C)(C)NC(=O)C(c1ccccc1)N(Cc1cccs1)C(=O)c1csnn1 (stereo not given) | 1 | -5% | 3 | -15% | -5% | -0.6 | -5%
O=C1CC(c2ccccc2Cl)Cc2c1cnn2-c1nc2ccccc2s1 (stereo not given) | 0 | u | x | x | x | 2.7 | x
C=CC(=O)Nc1cccc(Oc2ccnc3[nH]ccc23)c1 | x | x | -5 | -15% | 5% | x | x
CN(C(=O)c1cc2c(cc1Br)OCO2)c1cccc2ccccc12 | x | x | -2 | -1.7% | x | x | -24%
Cc1ccc(OCCOc2ccc(Br)cc2)c([N+](=O)[O-])n1 | 12 | -5% | 1 | u | -18% | 6.1 | -6%

Copied from the entries so far (two entries):
SMILES | TRPV1 potentiator | Sfp PPTase inh | TRPML1 inh | ClpP mod | gsp antag | Menin MLL FP FL | gsp agonist
CN(C(=O)c1cc2c(cc1Br)OCO2)c1cccc2ccccc12 | x | x | -2 | -1.7% | x | x | -24%
Cc1ccc(OCCOc2ccc(Br)cc2)c([N+](=O)[O-])n1 | 12 | -5% | 1 | u | -18% | 6.1 | -6%

Additional results.
SMILES | TRPV1 potentiator | Sfp PPTase inh | TRPML1 inh | ClpP mod | gsp antag | Menin MLL FP FL | gsp agonist
Cc1ccc(CN(c2ccc(C(=O)NCc3cccnc3)cc2)S(C)(=O)=O)cc1 | 5 | 21% | 4 | -1.4% | 0% | 2.9 | 2%
CC(C)CNC(=O)CO/N=C/c1ccccc1Cl | -8 | 18% | 20 | 0.0% | -18% | -0.7 | -18%[15.4 µM]
C=CCSc1nc(=O)n2ccc(C)cc2n1 | 2 | 1% | -15 | x | 2% | 5.5 | 15%[15.4 µM]
Cc1ccc(CSc2nc3ccccc3c(=O)n2Cc2ccco2)cc1 | u | -14% | 3 | -13% | 1% | 0.9 | -10%
CN(C)C(CNC(=S)Nc1ccccc1)c1cccnc1 (stereo not given) | 6 | 12% | 20 | 2.7% | 10% | 1.1 | -16%

Compounds were not picked by outcome, and some 4.9% of all compounds hit somewhere here.
